Ecoli growth: E. coli growth inhibition | Escherichia coli growth, OD600, 23 h; active compounds read low | OD600 absorbance (concentration not given with the values) | 330,000 compounds, 0.21% hits;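 active = OD600 absorbance below the run mean of sample wells minus 3.6 SD, in any replicate, cut at about 0.56 in these data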;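 also: stock transfer was 300 nL into about 60 µL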
AF4-AF9 inh: MLL-AF4/AF9 protein interaction inhibition; P42568; AlphaScreen, biotin-AF4 peptide binding to FLAG-AF9; inhibition, % at 10 µM; 350,000 compounds, 0.47% hits;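 active = every replicate reaching a set inhibition limit, whatever the replicate mean, cut at about 25% in these data; inconclusive = mean inhibition reaches that limit but some replicates miss it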;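 also: 0% = plate neutral control median and 100% = total signal loss; the record names both 10 and 1 µM as test concentration; the first replicate is given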
Target sequence (P42568 whole entry, looked up): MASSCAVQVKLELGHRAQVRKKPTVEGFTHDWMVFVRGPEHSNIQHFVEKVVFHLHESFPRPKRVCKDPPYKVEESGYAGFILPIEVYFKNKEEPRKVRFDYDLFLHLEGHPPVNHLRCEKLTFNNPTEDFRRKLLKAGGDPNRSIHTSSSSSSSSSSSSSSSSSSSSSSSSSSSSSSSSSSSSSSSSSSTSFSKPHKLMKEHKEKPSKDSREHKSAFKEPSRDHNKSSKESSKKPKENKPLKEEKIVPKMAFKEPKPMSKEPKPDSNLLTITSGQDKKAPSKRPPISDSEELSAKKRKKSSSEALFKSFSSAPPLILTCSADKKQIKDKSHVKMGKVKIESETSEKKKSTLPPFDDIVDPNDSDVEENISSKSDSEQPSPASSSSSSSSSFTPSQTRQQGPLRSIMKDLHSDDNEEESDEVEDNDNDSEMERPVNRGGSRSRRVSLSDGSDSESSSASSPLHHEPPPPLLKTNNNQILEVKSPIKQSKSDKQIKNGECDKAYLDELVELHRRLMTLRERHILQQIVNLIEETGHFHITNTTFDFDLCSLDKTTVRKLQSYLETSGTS
FGF22 binding: FGF22 (human) thermal shift binding; Q9HCT0; recombinant FGF22 thermal shift, SYPRO orange fluorescence; percent of sucrose octasulfate shift, DMSO zero; calls only at 9.99 µM; 340,000 compounds, 1.5% hits;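 active = melting point raised past a set limit in the mean and every replicate; inconclusive = no clear call; three in four hits are not shown here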
T cruzi inh: T. cruzi replication inhibition | T. cruzi beta-gal in NIH3T3, luminescence, 90 h | inhibition, % (concentration not given with the values) | 300,000 compounds, 1.4% hits;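 active = mean inhibition across valid replicates above about 55%, limit read from the data; inconclusive = mean below that limit but half or more replicates reach it; inactive = mean below it, under half of replicates reach it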;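 also: signal also drops with host cell toxicity which is not excluded here; 0% = plate median of DMSO wells and 100% = zero luminescence signal; higher percent means less beta-gal luminescence so fewer parasites; stock transfer was 50 nL into about 50 µL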
Beta cell apopt: beta cell apoptosis inhibition. protection from apoptosis, % (no concentration beside the values). AID 435005. INS-1E cytokine-induced death, ATP luminescence, 48 h; percent of positive-control rescue, neutral wells zero. 300,000 compounds, 0.8% hits;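 active = all replicates at 75% or more, or half of them and the mean; inconclusive = half reach 75% but not the mean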;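 also: 0% = cytokine-treated negative control wells and 100% = positive control rescue; higher means more ATP so stronger rescue from cytokine killing; wells of about 40 µL received 100 nL stock; the first replicate is given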
A1 inh: inhibitors of the anti-apoptotic protein A1, read as caspase activation | 330,000 compounds, 0.066% hits | MEF A1-2A-BIM cells, Caspase-Glo 3/7 luminescence, 3 h; percent of clofoctol response, vehicle zero | caspase activation, % (no concentration beside the values) | AID 2462;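 active = over half of replicate activation scores above 10%, or exactly half above 10 with the replicate mean above 10; inconclusive = replicate mean below 10 yet half the replicates above 10; inactive = over half of replicates below 10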;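 also: wells of about 30 µL received 50 nL stock; many hits fall short of the cut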
UCH37 DUB inh: inhibitors of human deubiquitinating enzyme UCH37; 330,000 compounds, 0.33% hits; inhibition, % (no concentration beside the values); Q9Y5K5; purified proteasome/UCH37, Ub-AMC cleavage fluorescence;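 active = mean of two replicates above 20%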;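 also: 0% = compound-free wells with enzyme and 100% = wells lacking proteasome; stock transfer was 100 nL into about 20 µL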
Target sequence (Q9Y5K5 whole entry, looked up): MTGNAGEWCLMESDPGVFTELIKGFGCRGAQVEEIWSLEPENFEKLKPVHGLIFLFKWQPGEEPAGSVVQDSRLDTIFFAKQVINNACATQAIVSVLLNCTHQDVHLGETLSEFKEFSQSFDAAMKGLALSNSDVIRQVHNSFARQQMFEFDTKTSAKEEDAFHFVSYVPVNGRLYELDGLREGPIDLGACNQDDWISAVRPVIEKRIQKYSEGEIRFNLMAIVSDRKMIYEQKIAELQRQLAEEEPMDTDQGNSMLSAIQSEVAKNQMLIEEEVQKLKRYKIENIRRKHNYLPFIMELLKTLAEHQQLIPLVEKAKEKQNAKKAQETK
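Material: Human UCH37 enzyme supplied as purified proteasome complex | Schedule: 30 min compound-proteasome preincubation then 25 min substrate reaction, room temperature | Detection: AMC fluorescence from Ub-AMC cleavage, excitation 355 nm, emission 460 nm | Benchmarks: Wells without proteasome as full block, compound-free enzyme plus substrate as uninhibited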
rRNA inh HTS: inhibits bacterial ribosomal RNA function over humanized ribosomes. E. coli WT GFP vs humanized-ribosome RFP mutants, fluorescence, 24 h; active compounds read low; DMSO median 0, no signal -100. GFP signal change (wild-type ribosome), % (concentration not given with the values). 350,000 compounds, 1.6% hits. AID 720706;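 active = significant combined selectivity score with lowered wild-type GFP, culture density cut under 30%, mutant RFP and density less affected; inactive = any of these conditions unmet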; also: one replicate is shown; some compounds called inactive have numbers as strong as hits
rRNA inh HTS OD600: second read-out of rRNA inh HTS, no call of its own (marks repeat the call); OD600 change, %; measured here: OD600 growth;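 optical density of the mix in the first replicate; 0 = DMSO median and -100 = no signal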
rRNA inh HTS RFP: recorded beside rRNA inh HTS, whose call it bears; RFP signal change, %; measured here: RFP humanized mutant strains;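 first replicate; 0 = DMSO median and -100 = no signal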
Active calls of the source: *; i = inactive; ? = inconclusive; . = not tested or not shown.

SMILES	Ecoli growth	AF4-AF9 inh	FGF22 binding	T cruzi inh	Beta cell apopt	A1 inh	UCH37 DUB inh	rRNA inh HTS	rRNA inh HTS OD600	rRNA inh HTS RFP
Cc1ccc(CN2CC(C(=O)N(Cc3nnc(-c4ccccc4Cl)o3)C3CC3)CC2=O)cc1 (centres undefined)	0.63	12	i	9	-1	1.1	-0.7	5	1	1.2
COC(=O)CNC(=O)C1CCN(S(=O)(=O)c2cnc[nH]2)CC1	0.68	-3.0	i	6	-10	-0.2	-1.1	11	5	-0.4
CC(=O)NC(Cc1cccc(C)c1)C(=O)NC1CCN(S(=O)(=O)c2ccccc2)CC1 (centres undefined)	0.7	-1.9	i	-4	-3	0.3	0.4	3	6	1.9
CCN1CCN(c2cc(C)c3cc(NC(=S)N(C)Cc4ccccc4)ccc3n2)CC1	0.67	16	i	35	-1	2.6	-0.3	0	1	29
COc1cc(/C=N/NC(=O)C(Cc2c[nH]c3ccccc23)NC(=O)OCC(C)C)cc([N+](=O)[O-])c1OCc1ccccc1 (centres undefined)	.	2.4	i	53	28	-0.6	.	20	14	2.6
COc1ccc(OC)c(/C=N/NC(=O)c2[nH]ncc2Br)c1	.	-2.8	i	-14	0	-1.0	.	11	7	1.3
CCc1ccc(S(=O)(=O)NCC2(N3CCOCC3)CCCCC2)cc1	0.69	1.5	i	.	-2	-0.9	4.3	-5	-7	1.4
CCN(CC)CCNC(=O)Cn1c(C)cc2ccccc2c1=O	0.72	.	.	-6	0	0.5	-12	.	.	.
Cc1cccnc1NC(=O)c1ccc(S(=O)(=O)N2CCCCCC2)cc1	0.67	-1.4	i	1	1	-1.3	0.8	6	5	-1.9
O=C1CC(c2ccccc2)CC2=C1C(c1ccccn1)Nc1ccccc1N2 (centres undefined)	0.7	-2.2	i	1	-3	0.1	6.2	4	5	-0.3
O=C(O)c1cccc(Nc2ncnc3c2cnn3-c2ccccc2)c1	0.62	.	.	-7	2	-6.0	0.7	.	.	.
CNc1c([N+](=O)[O-])cnn1-c1ccccc1F	0.7	1.8	i	-9	.	-0.5	6.9	6	6	1.2
CCN(CC)S(=O)(=O)c1ccc(C)c(NC(=O)COC(=O)CN2C(=O)NC(C)(C)C2=O)c1	0.7	1.8	i	-9	-2	-0.3	-0.9	7	6	0.8
NS(=O)(=O)c1ccc(-c2ccc(/C=N/NC(=O)c3ccccc3O)o2)cc1	.	9.3	i	6	-1	-0.1	.	9	5	-1.5
CC(=O)Nc1ccccc1OCC(=O)N(Cc1ccccc1)C(C)C	0.7	5.6	i	-23	-1	-0.4	0.3	6	3	-4.0
Cc1ccc(C2(C)NC(=O)N(CC(=O)NCc3cccc(Cl)c3)C2=O)cc1 (centres undefined)	0.68	-1.6	i	-12	0	-0.5	3.5	-9	7	0.9
CCn1c(C)c(C)c2cc(C(=O)NCCCN3CCCC3)ccc21	0.68	12	i	-1	0	0.7	1.5	2	0	5.6
C/C(=N/NC(=O)CN1CCN(Cc2ccccc2Cl)CC1)c1cccs1	.	-5.1	i	-4	-3	0.3	.	-8	3	4.1
Fc1ccc2cnc(-c3cccnc3)cc2c1	0.56	2.8	i	.	4	-4.0	1.7	-7	-22	-5.2
COc1cccc(CNCc2ccc(OC)cc2OC)c1	0.68	1.1	i	-9	.	0.3	2.7	2	-1	1.2
O=C(Oc1ccc(F)cc1)N1CCOCC1	0.68	-1.4	i	-9	.	-0.5	-3.0	3	4	-2.3
CC(C)(C)NC1=CC(=O)OC12CCCCC2	0.71	.	.	4	-1	-0.3	3.2	.	.	.
COc1ccc(NC(=O)Nc2nnc(CC(=O)NCc3ccccc3)s2)cc1	0.67	-0.9	i	-1	-2	0.2	-0.6	13	20	2.0
COc1cccc(N2CC(C)Cn3c2nc2c3c(=O)n(CCN3CCOCC3)c(=O)n2C)c1 (centres undefined)	0.65	.	.	-28	-4	-0.1	3.2	5	2	3.3
O=C1C(C2=NC(c3ccccn3)C3C(=O)N(c4ccc(Cl)cc4Cl)C(=O)C23)=C(O)c2ccccc21 (centres undefined)	0.72	-2.3	i	-3	53	0.7	-2.2	4	15	-1.0
O=C(C1CCN(S(=O)(=O)c2cccc3nsnc23)CC1)N1CCc2ccccc2C1	0.72	.	.	-3	3	-0.8	2.1	.	.	.
COc1ccc(-c2nc(-c3ccccc3)c(-c3cccs3)[nH]2)cc1OC	0.71	.	.	18	4	-0.6	-29	.	.	.
CCCCCCCc1nn2c(=O)cc(O)nc2s1	.	.	.	4	-6	0.4	0.9	.	.	.
COCCNC(=O)C(=O)Nc1cc2c3c(c1)CCC(=O)N3CCC2	0.7	-1.2	i	-10	-4	1.3	0.5	1	-1	-1.9
CSc1cccc(CNC(=O)C2CCC(=O)N(Cc3cccc(C(F)(F)F)c3)C2)c1 (centres undefined)	0.71	-1.0	i	4	5	0.6	4.6	-9	-2	0.2
CC(=O)c1ccc(N2CCN(S(=O)(=O)c3ccc4c(c3)NC(=O)CC(=O)N4)CC2)cc1	0.72	0.2	i	-20	1	0.3	2.7	9	12	-2.0
O=C(c1ccc(F)cc1)C1CCN(C(=O)N2CCOCC2)CC1	0.72	.	.	3	-2	-0.1	1.8	.	.	.
CCn1nc(C(=O)OCC(=O)NC(C)C)c2ccccc2c1=O	0.65	-1.7	i	-4	.	-0.2	-0.8	15	7	2.0
Cc1nnc(NC(=O)c2ccc3c(c2)C(=O)N(CC2CCCO2)C3=O)s1 (centres undefined)	0.67	0.6	i	8	1	-1.5	4.9	6	11	0.2
O=C(NC(=S)Nc1ccc(N2CCCCC2)cc1)c1cccs1	0.74	.	.	23	2	-1.2	2.9	.	.	.
COC(=O)c1ccc2c(=O)[nH]c(COC(=O)c3cccc(S(=O)(=O)N4CCOCC4)c3)nc2c1	0.64	2.0	i	-3	-1	2.0	-3.1	9	10	5.0
O=C(CC12CC3CC(CC(C3)C1)C2)NCO	0.75	.	.	-1	-4	-0.3	2.4	.	.	.
CCOC(=O)c1csc(COc2ccccc2Cl)n1	0.67	-0.2	i	9	-10	-2.2	5.5	-17	-18	-2.4
COc1ccc(-c2ccc(SCC(=O)NCc3ccco3)nn2)cc1	0.74	.	.	-15	2	0.3	1.7	.	.	.
CCOC(=O)c1c(C2CC2)csc1NC(=O)COC(=O)c1cnc(Cl)c(Cl)c1	0.7	1.0	i	6	2	-0.4	0.2	-34	-22	-7.2
O=C(COc1ccc(Cl)cc1)NCCCNC(=O)c1ccccn1	0.66	1.2	i	-15	-7	-0.2	0.3	2	5	-0.6
CCc1cccc(NC2c3ccccc3C(=O)N2c2ccc(C)cn2)c1 (centres undefined)	0.79	-0.6	i	37	8	-0.7	0.9	-2	-17	2.0
COC(=O)c1ccccc1S(=O)(=O)N(CCCO)Cc1cc2c(C)ccc(C)c2[nH]c1=O	0.63	-74	i	19	.	.	-5.6	-5	-3	-1.5
CNC(=O)c1ccc(Nc2nc(-c3ccccc3)nc3ccccc23)cc1	0.65	-0.6	i	27	1	-1.0	-137	-1	-11	0.3
COc1cc(NC(C)CCCN)c2ncccc2c1Oc1ccccc1 (centres undefined)	0.63	.	.	?	-4	-0.8	2.8	.	.	.
COc1ccc(Cn2c(=O)oc3ccccc32)cc1F	0.72	0.4	i	-10	-6	1.3	-0.9	3	0	0.5
CSc1ccc(C(=O)N2CCC(n3nccc3NC(=O)C3CC3)CC2)cc1	0.66	-0.9	i	-2	1	-0.8	-0.1	10	12	0.6
Cc1cc(Nc2cccc(Cl)c2C)n2ncnc2n1	0.7	-7.9	i	-19	-5	2.2	-0.1	2	-5	2.2
Cc1cccc(C)c1NC(=O)CS(=O)CC(=O)NC1CCN(Cc2ccccc2)CC1 (centres undefined)	0.67	.	.	-7	0	0.0	-1.6	.	.	.
Cc1ccc(-c2nc(NC(=O)CSc3nnc(C)s3)ns2)cc1	0.76	-0.5	i	-4	-5	0.3	0.3	-4	-16	-1.5
The listing continues:
SMILES	Ecoli growth	AF4-AF9 inh	FGF22 binding	T cruzi inh	Beta cell apopt	A1 inh	UCH37 DUB inh	rRNA inh HTS	rRNA inh HTS OD600	rRNA inh HTS RFP
O=C(c1ccc(S(=O)(=O)N2CCCC2)cc1)N(Cc1ccco1)C1CCS(=O)(=O)C1 (centres undefined)	0.7	0.1	i	3	0	1.0	3.7	0	1	-9.5
CCSc1ccccc1C(=O)Nc1cc(C)on1	0.67	.	.	-16	-2	0.7	0.7	.	.	.
CCN(C(=O)C1CCCN(c2ncnc3c2nc2n3CCCCC2)C1)c1cccc(Cl)c1 (centres undefined)	0.71	4.8	i	17	8	-0.4	2.1	-49	-61	35
COc1ccc(NC(=O)CSc2nnc(-c3ccncc3)n2C)cc1	0.69	-1.8	i	-10	3	-0.4	1.6	6	4	0.8
CCOC(=O)C1CCCN(C2CC(=O)N(c3cccc(C(F)(F)F)c3)C2=O)C1 (centres undefined)	0.69	.	.	-13	-1	0.6	-1.2	.	.	.
C=CCn1c(NCc2ccc(OC)cc2O)nc2ccccc21	0.69	-4.0	i	-8	-8	0.6	2.9	-29	-23	-1.9
Cc1ccc(S(=O)(=O)N2CCN(S(=O)(=O)N3CCCCCC3)CC2)cc1	0.71	-1.1	i	-1	-5	-0.7	3.4	18	20	0.0
N#CCC(=O)Nc1ccc(C(=O)Nc2cccc(S(N)(=O)=O)c2)cc1	0.75	-0.5	i	-1	-3	0.0	3.1	-1	-1	1.1
Cc1nn(CC#N)c(=O)n1-c1ccc(Cl)cc1	0.67	-0.6	i	-3	-6	-0.1	-0.1	18	6	-0.2
Cc1ccc(NC(=O)c2cc(S(=O)(=O)N(C)C)ccc2N2CCCC2)cc1S(=O)(=O)N(C)C	0.69	12	i	4	0	0.1	-0.1	-4	-8	3.9
CC1CN(C(=O)N2c3ccccc3Sc3ccccc32)CC(C)O1 (centres undefined)	0.7	.	.	11	4	-0.7	5.2	.	.	.
O=C(NCc1ccco1)c1c(F)c(F)c(F)c(C(=O)NCc2ccco2)c1F	0.71	-5.2	.	14	2	-0.1	-0.1	.	.	.
Cc1cc(C(=O)CC#N)c(C)n1CC(F)(F)F	0.74	.	.	5	1	-0.3	2.8	.	.	.
COc1ccc(CNc2cc(C)nc3ccc(OC)cc23)cc1	0.66	6.9	i	53	18	-0.7	-3.1	10	-3	-0.5

Only part of the results is shown. The share of hits here may be higher or lower than overall.
